# Assay outcomes from PubChem.
# RecA splice inh: blocks M. tuberculosis RecA intein splicing; P9WHJ3; cell-free RecA intein splicing, fluorescence; inhibition, %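 (about 9 µM by stock and volumes)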; 290,000 tested, 0.75% active; AID 2221; in the data active = inhibition above about 30%; inconclusive = no clear call, values can overlap the other calls;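 also: 0% = vehicle wells and 100% = reference inhibitor control wells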
# Target sequence (P9WHJ3 whole entry, looked up, canonical isoform): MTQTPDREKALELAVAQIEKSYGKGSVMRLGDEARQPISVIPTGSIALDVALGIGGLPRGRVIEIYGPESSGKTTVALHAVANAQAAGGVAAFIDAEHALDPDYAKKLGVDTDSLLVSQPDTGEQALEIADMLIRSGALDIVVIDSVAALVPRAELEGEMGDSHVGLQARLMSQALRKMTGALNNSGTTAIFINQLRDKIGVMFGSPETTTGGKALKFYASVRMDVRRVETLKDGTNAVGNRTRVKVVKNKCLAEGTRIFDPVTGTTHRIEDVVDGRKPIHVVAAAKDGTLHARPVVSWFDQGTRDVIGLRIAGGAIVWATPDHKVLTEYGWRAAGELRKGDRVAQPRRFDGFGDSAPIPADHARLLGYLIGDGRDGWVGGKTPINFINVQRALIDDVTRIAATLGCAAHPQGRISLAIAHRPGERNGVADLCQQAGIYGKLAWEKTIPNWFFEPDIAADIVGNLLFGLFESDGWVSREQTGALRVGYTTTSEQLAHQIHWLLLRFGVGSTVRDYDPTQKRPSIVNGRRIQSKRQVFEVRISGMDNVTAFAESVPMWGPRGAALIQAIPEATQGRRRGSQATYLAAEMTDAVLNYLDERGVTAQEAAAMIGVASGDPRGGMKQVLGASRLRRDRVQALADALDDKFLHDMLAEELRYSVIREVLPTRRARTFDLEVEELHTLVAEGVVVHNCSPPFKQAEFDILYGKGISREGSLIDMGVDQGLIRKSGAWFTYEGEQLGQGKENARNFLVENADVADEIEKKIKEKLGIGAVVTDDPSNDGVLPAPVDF
# Arbovirus inh: arbovirus infection inhibition; 200,000 tested, 0.37% active; arbovirus infection cell-based antiviral screen; inhibition, % at 10 µM;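 active = inhibition from about 30%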;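 also: bluetongue infection of BSR cells; cell survival read as ATP light after 72 h; 0% = infected wells without compound and 100% = uninfected wells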
# Mtb H37Rv: M. tuberculosis H37Rv growth inhibitors, H37Rv strain (AID 1626) | M. tuberculosis H37Rv growth inhibition; higher % means a stronger effect | 220,000 tested, 0.95% active | inhibition, % at 10 µM; hits with a dose series show IC50 in µM;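 active = confirmed in a dose series; inconclusive = inhibition above 80% but not taken into the dose series; inactive = below 80% or under 30% at every dose of the series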;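 also: bacteria incubated seven days before Alamar blue readout; 0% = bacteria only wells and 100% = bacteria with antibiotic wells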
# YopH inh: inhibitors of Yersinia enterocolitica YopH tyrosine phosphatase; fluorescence Ex485/Em525; inhibition, %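 (about 10 µM by stock and volumes)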; 140,000 tested, 0.16% active;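 active = inhibition of 50% or more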;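 also: controls were vehicle for no effect and minimum signal wells for full effect; inactives centre near -20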
# Mtb bLac sens: beta-lactam sensitization of Mtb H37Rv; M. tuberculosis H37Rv growth with meropenem, percent inhibition; hits of this screen are not shown here; inhibition, % at 25 µM; 330,000 tested, 0.27% active;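 active = about 74% or more and at least 40 points above the plate without the antibiotic, then above 30% in a dose series; inconclusive = first-round hits that could not be retested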;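 also: growth measured after seven days incubation then overnight dye step; 0% = bacteria only wells and 100% = bacteria with antibiotic; twin plates without the antibiotic show which effects depend on it; some results filed as inactive read as strong as hits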
# Arbovirus inh repeat: also measured in Arbovirus inh; calls as there; inhibition, %; measured here: 10K subset replicate screen; many hits read low in the repeat;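 first of two repeat runs on a subset; 0% = infected and 100% = uninfected wells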
# * = called active by the depositor; ? = inconclusive; nt = no result given. Not all compounds are listed, so the mix of outcomes need not match the whole.
# A first look:
SMILES,RecA splice inh,Arbovirus inh,Mtb H37Rv,YopH inh,Mtb bLac sens,others
O=C(Cn1cc(Cl)c([N+](=O)[O-])n1)NCCC1=CCCCC1,4.8,nt,nt,nt,-1,
C=C(C)C(=O)N1CC2(CC(c3cccc(NC(=O)CC)c3)=NO2)C[C@H]1C(N)=O (stereo partly drawn),-2.1,nt,-10%,nt,-8,
O=C(CN1CCCC1)Nc1c(C(=O)C2CC2)oc2ccccc12,1.7,nt,2%,nt,7,
CC(=NCCN1CCN(C(C)=C2C(=O)c3ccccc3C2=O)CC1)C1=C(O)CC(C)(C)CC1=O,-0.4,-5,-1%,-16,3,
O=C(CSc1nc2[nH]ncc2c(=O)[nH]1)NCc1ccccc1,0.0,5,-1%,-17,3,

# The list itself, previewed entries included:
SMILES,RecA splice inh,Arbovirus inh,Mtb H37Rv,YopH inh,Mtb bLac sens,others
O=C(Cn1cc(Cl)c([N+](=O)[O-])n1)NCCC1=CCCCC1,4.8,nt,nt,nt,-1,
C=C(C)C(=O)N1CC2(CC(c3cccc(NC(=O)CC)c3)=NO2)C[C@H]1C(N)=O (stereo partly drawn),-2.1,nt,-10%,nt,-8,
O=C(CN1CCCC1)Nc1c(C(=O)C2CC2)oc2ccccc12,1.7,nt,2%,nt,7,
CC(=NCCN1CCN(C(C)=C2C(=O)c3ccccc3C2=O)CC1)C1=C(O)CC(C)(C)CC1=O,-0.4,-5,-1%,-16,3,
O=C(CSc1nc2[nH]ncc2c(=O)[nH]1)NCc1ccccc1,0.0,5,-1%,-17,3,
CN(C)C(=O)/C=C\c1cn(-c2ccccc2)nc1-c1ccc2c(c1)OCCO2,3.2,-10,11%,nt,-1,
CCOCCCNC(=O)/C(C#N)=C/c1ccc([N+](=O)[O-])o1,29,-32,?,nt,100,
O=C(Nc1cccc(F)c1)OC(CN1CCCCC1)C(F)(F)F (stereo not drawn),0.6,-3,7%,20,1,
O=C(CSc1nncc2ccccc12)N1CCCCC1,2.8,-6,-17%,nt,-11,
CC(=O)Nc1cccc(NC(=O)c2cc3ccccc3o2)c1,2.4,-4,-9%,-42,2,
CCCC(C(=O)N1CCOCC1)N1C(=O)C2C3C=CC(C3)C2C1=O (stereo not drawn),6.5,2,5%,-46,88,Arbovirus inh repeat=4
CC(=O)N1N=C(c2ccccc2)CC1c1cccs1 (stereo not drawn),-2.8,nt,nt,nt,7,
Cc1cc(/C=C2\SC(=S)NC2=O)cc(C)c1O,1.2,nt,-9%,nt,1,
Cc1cc(NC(=O)NC2CCCN2S(=O)(=O)c2ccc(Cl)cc2)no1 (stereo not drawn),-2.8,5,13%,-38,-8,
c1ccc(Oc2cccc(CN3CCCCC3)c2)cc1,0.6,1,-5%,12,6,
Cc1noc2ncnc(SCc3ccc(C(F)(F)F)cc3)c12,9.5,nt,4%,nt,42,
COc1ccc(N2CC(C(=O)Nc3ccc4c(c3)OCCO4)CC2=O)cc1 (stereo not drawn),0.0,nt,nt,nt,-10,
COc1ccc(-c2noc(CN3C(=O)c4ccccc4C3=O)n2)cc1,0.5,1,-6%,-28,4,
Cc1cc(NC(=O)CCN2C(=O)/C(=C/c3ccccc3F)SC2=S)no1,0.7,26,4%,nt,-9,
O=C(COC(=O)c1ccc(F)cc1)Nc1nc2ccc([N+](=O)[O-])cc2s1,-1.7,-2,-4%,nt,-1,
O=C(O)c1ccc(Nc2cnc3ccccc3n2)cc1,1.6,7,-1%,nt,3,
CCOC(=O)c1cnc2ccc(Br)cc2c1NCCO,-0.1,1,-6%,-20,11,
O=[N+]([O-])c1ccc(N2CCN(c3ccc(O)cc3)CC2)cn1,1.0,nt,nt,nt,-6,
Cn1c(=O)c2ccccc2n(CC(=O)NC2CCCC2)c1=O,8.9,nt,nt,nt,5,
CC1CCCN(C(=O)COc2ccc(-c3ccccc3)cc2)C1 (stereo not drawn),3.3,-2,9%,nt,3,

# Following part:
SMILES,RecA splice inh,Arbovirus inh,Mtb H37Rv,YopH inh,Mtb bLac sens,others
Cc1ccc(-n2nc(C)c3onc(C)c3c2=O)cc1,-0.2,nt,-11%,nt,-10,
CCOc1ccc2nc(NCCCNS(=O)(=O)c3ccc(C)cc3)c(C#N)cc2c1,nt,-4,3%,-2,-5,
CC1(C)CC(=O)C2=C(C1)NC(SCC(N)=O)=C(C#N)C21CCCCC1,-1.2,-16,-3%,-28,-1,
CC(C)CC(NC(=O)C(NC(=O)OC(C)(C)C)C(C)C)C(=O)N1CCCC1C(N)=O (stereo not drawn),-2.6,-1,-5%,-21,-8,
COC(=O)Cc1ccc(NC(=S)NCC(C)C)cc1,5.3,-2,52%,-19,-2,
CCCCC(c1nnnn1CC1CCCO1)N1CCN(Cc2ccccc2)CC1 (stereo not drawn),1.6,3,-5%,22,-9,
O=C(/C=C/c1ccco1)Nc1cccc2cccnc12,2.3,-9,-7%,-16,0,
Cn1cc(C(=O)N2CCN(c3ccccc3)CC2)c(=O)c2cc(S(=O)(=O)N3CCOCC3)ccc21,-1.5,nt,nt,nt,0,
CCN(CC1CCCN(CCc2cccc(F)c2)C1)C(=O)c1ccc(CSC)o1 (stereo not drawn),3.0,nt,nt,nt,-4,
COc1ccc(-c2csc3nc(C)n(-n4cccc4)c(=O)c23)cc1OC,nt,-4,1%,-1,5,
CCOc1ccc(/C=N/NC(=O)C2CC2)c(OCC)c1,-1.0,nt,nt,nt,-5,
Cc1onc(-c2ccccc2Cl)c1C(=O)Nc1ccc(-c2cn3cccnc3n2)cc1,-2.8,3,-3%,-34,?,
CN(C)C(=O)c1cc(C(=O)c2ccccc2)c[nH]1,-3.0,nt,nt,nt,-6,
O=C(Cn1nc(-c2ccco2)ccc1=O)Nc1ccc(Br)cc1,-2.4,nt,nt,nt,4,
CCOCCCN1C(=O)CN(C2CCCCCC2)C(=O)C1c1ccc(OC)cc1 (stereo not drawn),-0.4,6,-3%,-14,-1,
Oc1ccccc1-c1nc(N2CCN(Cc3ccccc3)CC2)c2ccccc2n1,-1.2,-9,12%,-27,7,
CCOC(=O)NC(=O)C(=CNc1ccc(C)cc1)C(=O)NC(=O)OCC,-0.4,3,1%,-31,-2,
Cc1cnc(NC(=O)CSC(=S)N2CCOCC2)s1,-2.1,-3,0%,nt,5,
NCCc1nnc(SCc2c(F)cccc2Cl)o1,-1.0,10,-12%,-6,-6,
COc1ccc(C2CC(c3ccccc3)=NN2C(=O)CN2CCN(Cc3ccccc3)CC2)cc1 (stereo not drawn),1.8,-12,3%,nt,52,
CC(NS(=O)(=O)c1ccccc1)C(=O)Nc1nccs1 (stereo not drawn),nt,7,-1%,1,2,
CCCCNC(=O)Nc1nnc(-c2ccccc2)o1,-0.3,-12,65%,-27,77,
Cc1ccc(OCC(=O)N/N=C/c2cn[nH]c2-c2ccc(Cl)c(Cl)c2)cc1,-1.8,-17,8%,-29,90,
Cc1ccc(CN2CCSc3ccc(C(=O)NC4CCCC4)cc32)cc1,0.7,nt,nt,nt,-3,
CCOC(=O)c1ccc(NC(=S)N(CCCN2CCCC(C)C2)Cc2cccs2)cc1 (stereo not drawn),0.0,7,8%,nt,-13,

# Further compounds
SMILES,RecA splice inh,Arbovirus inh,Mtb H37Rv,YopH inh,Mtb bLac sens,others
CCC(C)[C@H](NC(=O)N1CCn2c1nc1ccccc12)C(=O)NCCc1ccc(OC)c(OC)c1 (stereo partly drawn),-1.3,nt,nt,nt,4,
COc1ccccc1C(O)Cc1nc2ccccc2n1C (stereo not drawn),-7.2,10,-5%,-15,-4,
CN(CC(=O)Nc1ccccc1Sc1ccccc1)Cc1nc2ccccc2c(=O)[nH]1,2.0,-6,2%,nt,8,
COC(=O)C(C)Oc1cc(C)cc2oc(=O)c3c(c12)CCC3 (stereo not drawn),4.6,-1,-7%,-14,4,
CCOc1ccc(NC(=O)C2CCCN(S(=O)(=O)c3cnc[nH]3)C2)cc1 (stereo not drawn),-1.6,nt,nt,nt,0,
CCOC(=O)N1CCC(NC(=O)CCc2nc(-c3ccc(C)cc3)no2)CC1,-0.6,-1,3%,-64,-7,
CCN(CC)c1ccc(C(=O)Nn2cnc3ccccc3c2=O)cc1,0.5,nt,nt,nt,2,
CCN1CCN(C(=O)c2ccccc2NS(=O)(=O)c2ccc(Cl)cc2)CC1,-1.9,5,1%,nt,6,
Cc1ccccc1N1CCN(C2=NC(=O)/C(=C/c3cn[nH]c3-c3ccccc3)S2)CC1,-0.5,-3,5%,-6,10,
COc1ccc(OCC(=O)Nc2ccc(N3CCN(Cc4ccccc4F)CC3)cc2)cc1,-1.8,nt,nt,nt,-2,
O=C(CSc1ccc2nnc(CCNS(=O)(=O)c3ccccc3)n2n1)Nc1nc2ccccc2s1,-1.0,8,-3%,-8,1,
Cc1nn(C)cc1S(=O)(=O)N1CCCC(C(=O)O)C1 (stereo not drawn),0.0,0,-4%,nt,1,
CCCCOc1cccc(C(=O)Nc2ccccc2N2CCCC2)c1,9.3,nt,nt,nt,4,
O=S(=O)(Nc1ccc2ccccc2c1)c1ccccc1,4.6,11,11%,-24,2,
Cc1noc(C(=O)N(C)c2ccccc2)c1Cl,-2.1,nt,nt,nt,21,
COc1ccc(N=C2S/C(=C\c3ccc(OCC(=O)O)cc3)C(=O)N2CCc2c[nH]c3ccccc23)cc1,nt,46*,-4%,nt,nt,
CN(C)S(=O)(=O)c1ccc(C(=O)Nc2cc(S(=O)(=O)Nc3ccccc3Cl)ccc2N2CCCCC2)cc1,0.9,19,5%,-30,8,
Cc1ccc([N+](=O)[O-])cc1NC(=O)C(Sc1ccccc1)c1ccccc1 (stereo not drawn),0.9,-8,2%,-21,1,
CCN1CCN(c2cc(C)c3cc(NC(=O)CCC(=O)N4CCN(c5ccccc5)CC4)ccc3n2)CC1,1.8,nt,nt,nt,4,
CCN(CC(=O)NCc1cccs1)S(=O)(=O)c1ccccc1Cl,1.6,nt,nt,nt,-7,
COc1ccc(N2C(=O)N[C@@H](Cc3ccccc3)C2=O)cc1OC,-0.9,nt,nt,nt,5,
O=C(N/N=C/c1ccc[nH]1)c1ccc(Cl)cc1,3.9,1,-6%,-33,50,
CC1(C)CC(NS(=O)(=O)c2ccc3ccccc3c2)CC(C)(C)N1,-0.8,nt,nt,nt,1,
CCC(C)n1c(SCC(=O)NC2CCS(=O)(=O)C2)nc2ccccc2c1=O (stereo not drawn),-3.6,nt,nt,nt,-8,
O=C(Cn1ccc2ccccc2c1=O)NCC(=O)N1CCN(c2ccccc2F)CC1,3.0,nt,nt,nt,4,

# (more compounds)
SMILES,RecA splice inh,Arbovirus inh,Mtb H37Rv,YopH inh,Mtb bLac sens,others
COc1ccccc1C(=O)NCC(=O)OCCCOC(=O)CNC(=O)c1ccccc1OC,-1.2,nt,nt,nt,-10,
Cc1cccc(CC2CC(=O)N(c3ncccn3)C2=O)c1 (stereo not drawn),0.6,2,-8%,-19,-2,
CCn1c(=O)n(CCOC)c(=O)c2c3c(sc21)CCCC3,1.0,-4,-1%,-10,-7,
CC(=O)N1CCCc2cc(S(=O)(=O)N3CCCC(C(=O)NCc4ccccc4Cl)C3)ccc21 (stereo not drawn),-1.2,nt,nt,nt,-5,
COc1cccc(/C=C/C(=C2/C(=O)N(c3ccccc3)N=C2C)c2ccccc2)c1OC,2.1,-19,10%,-24,13,
O=C(N1CCOCC1)N1CCN(S(=O)(=O)N2CCOCC2)CC1,4.0,1,2%,-52,-11,
CSc1nc(C)nc2c1c(=O)n(C)c(=O)n2C,-2.4,6,-4%,nt,-8,Arbovirus inh repeat=2
C#CCOC(=O)C[N+](C)(C)C/C=C/c1ccccc1,3.5,-6,13%,nt,2,
Cc1[nH]n(-c2ncc(-c3ccc(Cl)cc3)s2)c(=O)c1C(c1ccc(Cl)cc1)C(C#N)C#N (stereo not drawn),6.9,-34,73%,-9,8,
COCC(=O)N1CCCc2ccccc21,-0.1,9,-9%,-25,-1,
C=CCOc1cccc(C(=O)N2CCC(CCC(=O)NC3CC3)CC2)c1,0.0,nt,nt,nt,2,
COC(=O)C1=C(C)N(CCc2c[nH]c3ccccc23)C(=O)C1,-2.7,1,0%,nt,-2,
O=C1CSC(c2cn(-c3ccccc3)nc2-c2cc3ccccc3o2)N1Cc1ccccc1 (stereo not drawn),4.5,-5,nt,0,15,
CCOc1ccc(C2CC(c3ccc(OC)cc3)n3ncnc3N2)cc1 (stereo not drawn),19,6,-1%,-15,11,Arbovirus inh repeat=14
COc1cccc(/C(O)=C2/C(=O)C(=O)N(CCN3CCOCC3)C2c2cccnc2)c1 (stereo not drawn),-1.1,-4,nt,-21,-11,
CCCC(=O)Nc1ccc(NC(=O)c2ccco2)cn1,-0.6,-3,-4%,-15,0,
CC(C)(C)c1cc(C(=S)N2CCCC2)cc(C(C)(C)C)c1O,6.3,nt,nt,nt,10,
Cn1c(C(=O)N2CCN(c3nc4ccccc4s3)CC2)cc2sccc21,-3.5,13,-2%,-20,0,
